Assay outcomes (PubChem BioAssay)
ID4 binder – binds human ID4 protein on microarray. P47928. small molecule microarray, Flag-ID4 binding, fluorescence F/B. calls only. 1.2% of 31,000 active. AID 624137;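 active = spot signal over background at p below 0.07 in all four prints; compounds were printed on slides so no solution concentration is given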;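 note: a binder raises fluorescence above local background on the spot; about 2 pmol printed per array spot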
Target sequence (P47928 whole entry, looked up): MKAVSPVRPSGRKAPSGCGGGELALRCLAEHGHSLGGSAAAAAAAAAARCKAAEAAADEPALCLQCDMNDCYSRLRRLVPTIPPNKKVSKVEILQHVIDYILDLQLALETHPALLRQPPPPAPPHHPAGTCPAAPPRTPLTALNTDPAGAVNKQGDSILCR
Calls only; i = inactive; + = active, no number. This is a subset (hit frequency here may not be typical).

| Molecule | ID4 binder |
| --- | --- |
| CCCN(C)C[C@@H]1Oc2ncc(-c3cccc(OC)c3)cc2C(=O)N([C@H](C)CO)C[C@@H]1C | i |
| COc1cc(NC(=O)C(C)Oc2ccc(Cl)cc2Cl)ccc1NC(=O)c1ccco1 (stereo not given) | i |
| NS(=O)(=O)c1ccc(CCNC(=O)c2cc(-c3cccnc3)nc3ccc(Cl)cc23)cc1 | i |
| Cn1c(=O)c(C(=O)NCCO)c(O)c2ccccc21 | i |
| COc1cc(NC(=O)COc2ccccc2OC)cc(OC)c1 | i |
| Cc1cccc(OCC(O)Cn2cnc3ccccc32)c1 (stereo not given) | i |
| C[C@@H]1CN([C@H](C)CO)C(=O)c2cc(-c3ccc(F)cc3)cnc2O[C@H]1CN(C)Cc1ccc(F)cc1 | i |
| O=C(O)c1cccc(NC(=O)c2ccc3c(c2)C(=O)N(Cc2cccnc2)C3=O)c1 | i |
| CN(CC(=O)Nc1ccc([N+](=O)[O-])cc1)S(=O)(=O)c1cc(Cl)ccc1Cl | i |
| NC(=O)[C@H]1[C@@H]2C(=O)O[C@@H](c3ccccc3)[C@@H](c3ccccc3)N2[C@@H](c2ccc(O)cc2)[C@]12C(=O)Nc1ccc(C#CCCO)cc12 | i |
| COCC#Cc1cnc2c(c1)C(=O)N([C@@H](C)CO)C[C@@H](C)[C@H](CN(C)S(=O)(=O)c1ccccc1)O2 | i |
| COC(=O)C[C@@H]1CC[C@H](NC(=O)c2ccccc2)[C@H](CO)O1 | i |
| CCC(=O)N(C)C[C@H]1Oc2ncc(-c3ccc(C(=O)N(C)C)cc3)cc2C(=O)N([C@@H](C)CO)C[C@H]1C | i |
| Cc1cc(=O)[nH]c(SCC(=O)Nc2c(C)cccc2C)n1 | i |
| CC(C)(C)c1ccc(OCCn2c(CO)nc3ccccc32)cc1 | i |
| Cc1cc(OCC(=O)Nc2ccccc2-c2nc3ccccc3s2)ccc1Cl | i |
| COc1ccc(OC(=O)c2cnc3n(c2=O)CCS3)cc1 | i |
| CCC(=O)N[C@@H]1CC[C@H](CC(=O)NCc2ccccc2F)O[C@H]1CO | i |
| Oc1oc(-c2ccco2)nc1C=Nc1ccccc1 | i |
| C[C@]12C=CC(=O)C=C1CCC1C2C(=O)C[C@@]2(C)C1CC[C@]2(O)C(=O)CO (stereo not given in full) | i |
| CS(=O)(=O)Nc1ccccc1C(=O)NCc1ccco1 | i |
| COc1ccc(C(=O)Cn2c3ccccc3n3nc(-c4ccccc4)nc23)cc1OC | i |
| O=[N+]([O-])c1ccc(CSc2nnc(-c3ccccn3)n2-c2ccccc2)cc1 | i |
| CO[C@H](CN(C)Cc1nccs1)[C@H](C)CN([C@@H](C)CO)S(=O)(=O)c1ccc(C)cc1 | i |
| CN1C(=O)c2cccc(NC(=O)C3COc4ccccc4O3)c2C1=O (stereo not given) | i |
| CCCN(C)C[C@@H]1Oc2ncc(-c3ccccc3OC)cc2C(=O)N([C@H](C)CO)C[C@@H]1C | i |
| C[C@H](CO)N1C[C@H](C)[C@@H](CN(C)C)Oc2cc(-c3ccncc3)ccc2S1(=O)=O | i |
| C[C@@H]1CN([C@H](C)CO)C(=O)c2cc(/C=C/c3ccccc3)cnc2O[C@H]1CN(C)Cc1ccccc1 | i |
| C[C@@H]1CN([C@H](C)CO)S(=O)(=O)c2ccc(/C=C/c3ccccc3)cc2O[C@@H]1CN(C)CC1CC1 | i |
| O=S(=O)(c1ccc(F)cc1)c1nc(-c2ccccc2Cl)oc1NCc1ccco1 | i |
| O=C(C[C@@H]1C[C@@H]2c3cc(NS(=O)(=O)c4ccccc4)ccc3O[C@@H]2[C@@H](CO)O1)NCC1CC1 | i |
| N#C[C@H]1[C@@H](c2ccc(-c3ccccc3F)cc2)[C@@H](CO)N1C(=O)C1CC1 | i |
| CCn1c(SCC(=O)c2ccc(F)cc2)nnc1-c1cccc([N+](=O)[O-])c1 | i |
| COc1ccc(-c2coc3c(OC)c(OC)cc(OC)c3c2=O)cc1 | i |
| O=C(COc1ccc([N+](=O)[O-])cc1)Nc1cc(C(F)(F)F)ccc1N1CCOCC1 | i |
| Cc1nn(CC(=O)Nc2ccc(C(C)C)cc2)c(C)c1[N+](=O)[O-] | i |
| O=C1c2ccccc2C(=O)N1CCCSc1nccn1-c1cc(Cl)ccc1Cl | i |
| Cc1ccc(N(C(C)C(=O)Nc2cccc(Cl)c2Cl)S(C)(=O)=O)cc1 (stereo not given) | i |
| CC(=O)Nc1ccc(NC(=O)CN(C)S(=O)(=O)c2ccc(Br)cc2)cc1 | i |
| CC(=O)c1cccc(NC(=O)C2CCCN(S(=O)(=O)c3ccccc3)C2)c1 (stereo not given) | + |
| C[C@@H]1CN([C@@H](C)CO)C(=O)c2cc(C3=CCCC3)cnc2O[C@@H]1CN(C)C(=O)CN(C)C | i |
| CNC[C@@H]1Oc2ncc(/C=C/c3ccccc3)cc2C(=O)N([C@H](C)CO)C[C@H]1C | i |
| O=C(O)/C=C/C(=O)N(Cc1ccccc1)Cc1ccccc1 | i |
| CCC(=O)N(C)C[C@@H]1Oc2ncc(-c3ccccc3C)cc2C(=O)N([C@H](C)CO)C[C@H]1C | i |
| COc1ccc(-c2cc(C(F)(F)F)nc(SCC(=O)Nc3ccc4c(c3)CCC4)n2)cc1OC | i |
| C[C@H]1CN([C@@H](C)CO)C(=O)c2cc(C#CCN(C)C)cnc2O[C@H]1CN(C)Cc1cccc(F)c1 | i |
| Cc1cccc(CN(C)C[C@@H]2OCc3cn(nn3)CCCC(=O)N([C@H](C)CO)C[C@@H]2C)c1 | i |
| COc1ccc(CNC(=O)C[C@@H]2C=C[C@@H](NC(=O)c3ccc4c(c3)OCO4)[C@@H](CO)O2)cc1 | i |
| Cc1cccc(C)c1NC(=O)C(C)N(c1ccc(Cl)cc1)S(C)(=O)=O (stereo not given) | i |
| COC(=O)c1ccc(C(=O)OC)c(NC(=O)COc2cc(C)c(C)cc2C)c1 | i |

The final 5 entries of the part before are carried over, then new ones follow.
| Molecule | ID4 binder |
| --- | --- |
| C[C@H]1CN([C@@H](C)CO)C(=O)c2cc(C#CCN(C)C)cnc2O[C@H]1CN(C)Cc1cccc(F)c1 | i |
| Cc1cccc(CN(C)C[C@@H]2OCc3cn(nn3)CCCC(=O)N([C@H](C)CO)C[C@@H]2C)c1 | i |
| COc1ccc(CNC(=O)C[C@@H]2C=C[C@@H](NC(=O)c3ccc4c(c3)OCO4)[C@@H](CO)O2)cc1 | i |
| Cc1cccc(C)c1NC(=O)C(C)N(c1ccc(Cl)cc1)S(C)(=O)=O (stereo not given) | i |
| COC(=O)c1ccc(C(=O)OC)c(NC(=O)COc2cc(C)c(C)cc2C)c1 | i |
| Cc1ccc(C(=O)CSc2nnc(-c3ccco3)o2)o1 | i |
| COCC(=O)N(C)C[C@H]1Oc2cc(C#CCC(C)C)ccc2S(=O)(=O)N([C@H](C)CO)C[C@H]1C | i |
| O=C(C[C@@H]1CC[C@@H](NS(=O)(=O)c2ccc(F)cc2)[C@H](CO)O1)NCc1ccc(Cl)c(Cl)c1 | i |
| CC(=O)OCC(=O)[C@@]1(O)CC[C@H]2[C@@H]3CCC4=CC(=O)CC[C@]4(C)[C@H]3[C@@H](O)C[C@@]21C | i |
| Cc1cc(=O)n2c3ccccc3n(CC(O)CNc3ccccc3)c2c1C#N (stereo not given) | i |
| COc1cc(OC)cc(-c2nnc(SCC(=O)NC3CC4CCC3C4)o2)c1 (stereo not given) | i |
| Cn1cnc2c(NCc3ccccc3)nc(NCCO)nc21 | i |
| COc1ccc(-c2cc(C)nc(SCc3cccc(C(=O)O)c3)n2)cc1 | i |
| COc1cc(C)c(Br)cc1S(=O)(=O)NCCCN1CCOCC1 | i |
| Cc1sc(NC(=O)COc2ccc(-c3ccccc3)cc2)c(C(N)=O)c1C | i |
| O=C(NCc1ccco1)C1CCCN(S(=O)(=O)c2ccc(Cl)cc2)C1 (stereo not given) | i |
| Cn1c(SCC(=O)Nc2ccc3c(c2)oc2ccccc23)nnc1-c1ccccc1 | i |
| C[C@H]1CN([C@@H](C)CO)C(=O)c2cc(C#CC3CC3)cnc2O[C@@H]1CN(C)S(=O)(=O)c1cccc(F)c1 | i |
| O=C(CSc1nnc(-c2cccs2)n1-c1ccc(F)cc1)Nc1ccc(Cl)c(Cl)c1 | i |
| O=C(CSc1nnc(-c2cnccn2)n1-c1ccccc1)Nc1cc(C(F)(F)F)ccc1Cl | i |
| CCn1c(SCC(=O)Nc2cc(C(F)(F)F)ccc2Cl)nnc1-c1ccccc1F | i |
| CCCN1C[C@@H](C)[C@H](OC)CN(C)C(=O)c2cc(NC(=O)c3ccccc3F)ccc2OC[C@H]1C | i |
| COc1ccc(Cl)cc1N1CCN(CCCNC(=S)Nc2ccc(Cl)cc2C)CC1 | i |
| C[C@@H]1CN([C@H](C)CO)C(=O)c2cc(-c3cccc(C#N)c3)cnc2O[C@@H]1CN(C)C | i |
| Cc1cccc(OCCCC(=O)Nc2ccc3c(c2)OCCO3)c1C | i |
| CS(=O)(=O)N(CC(=O)Nc1ccccc1C(=O)N1CCOCC1)c1cccc(F)c1 | i |
| COc1cc([N+](=O)[O-])ccc1NC(=S)NCCn1cc(Br)cn1 | i |
| C[C@H](CO)N1C[C@H](C)[C@@H](CN(C)Cc2ccccc2)Oc2cc(Br)ccc2S1(=O)=O | i |
| COC(=O)c1cc(C)cc(=O)o1 | i |
| C[C@@H]1CN([C@@H](C)CO)S(=O)(=O)c2ccc(-c3cccc(F)c3)cc2O[C@@H]1CN(C)CC1CC1 | i |

3 records picked at random from the list so far:
| Molecule | ID4 binder |
| --- | --- |
| COc1ccc(-c2cc(C)nc(SCc3cccc(C(=O)O)c3)n2)cc1 | i |
| COc1cc([N+](=O)[O-])ccc1NC(=S)NCCn1cc(Br)cn1 | i |
| Cn1c(SCC(=O)Nc2ccc3c(c2)oc2ccccc23)nnc1-c1ccccc1 | i |

Later entries.
| Molecule | ID4 binder |
| --- | --- |
| COc1ccc(CNC(=O)C[C@H]2CC[C@@H](NC(=O)CN(C)C)[C@H](CO)O2)cc1 | i |
| COc1cccc(S(=O)(=O)N(C)C[C@H]2Oc3cc(C4=CCCCC4)ccc3S(=O)(=O)N([C@H](C)CO)C[C@H]2C)c1 | i |
| CC(C)[C@H](C)NC(=O)N(C)C[C@@H]1OCc2ccccc2-c2ccccc2C(=O)N([C@H](C)CO)C[C@@H]1C | i |
| COCC#Cc1cnc2c(c1)C(=O)N([C@@H](C)CO)C[C@H](C)[C@@H](CN(C)C)O2 | i |
| C[C@@H]1CN([C@@H](C)CO)C(=O)c2cc(-c3ccccc3F)cnc2O[C@H]1CN(C)C(=O)C1CCCCC1 | i |
| COc1cccc(NC(=O)CCC(=O)O)c1 | i |
| Cc1ccc(C(C)C)c(OCc2ccc(C(=O)Nc3sc4c(c3C#N)CCCC4)o2)c1 | i |
| CCC(=O)Nc1ccc2c(c1)C(=O)N(C)C[C@@H](OC)[C@H](C)CN(CCc1ccccc1)[C@H](C)CO2 | i |
| Cc1cc(C(F)(F)F)nc2snc(Br)c12 | i |
| C[C@@H]1CN([C@@H](C)CO)C(=O)c2cc(NC(=O)Cc3cn(C)c4ccccc34)ccc2O[C@H]1CN(C)C | i |
| CC(C)CC#Cc1cnc2c(c1)C(=O)N([C@H](C)CO)C[C@@H](C)[C@@H](CN(C)C(=O)Cc1ccccc1)O2 | i |
| CCN(CC(=O)Nc1cccc(SC)c1)S(=O)(=O)c1ccc2ccccc2c1 | i |
| COC(=O)c1ccccc1NC(=O)CNC(=O)c1ccc(Cl)cc1Cl | i |
| O=C(Cn1ccc([N+](=O)[O-])n1)NCc1ccccc1 | i |
| COCC#Cc1cnc2c(c1)C(=O)N([C@H](C)CO)C[C@@H](C)[C@H](CN(C)C(=O)Cc1ccncc1)O2 | i |
| CCCC#Cc1ccc2c(c1)O[C@@H](CN(C)C(=O)CC)[C@@H](C)CN([C@@H](C)CO)S2(=O)=O | i |
| N#CCCN(Cc1ccco1)S(=O)(=O)c1ccccc1 | i |
| COc1ccc(CCNC(=O)Nc2ccc(C(C)=O)cc2)cc1OC | i |
| O=C(Cc1ccccc1)N[C@@H]1C=C[C@@H](CC(=O)N2CCCCC2)O[C@H]1CO | i |
| CN(C)c1ccc2c(c1)[C@H]1C[C@@H](CC(=O)NCc3cccc(F)c3)O[C@@H](CO)[C@H]1O2 | i |
| O=C(C[C@H]1C=C[C@@H](NC(=O)C2CC2)[C@@H](CO)O1)NCC1CC1 | i |
| CCC(=O)N[C@H]1CC[C@H](CC(=O)OC)O[C@H]1CO | i |
| O=C(Cn1c(=O)oc2ccccc21)Nc1ccc(S(=O)(=O)N2CCCC2)cc1 | i |
| C[C@H]1CN([C@@H](C)CO)C(=O)c2cc(C#Cc3cccnc3)cnc2O[C@H]1CN(C)C | i |
| O=C(COc1ccc([N+](=O)[O-])cc1)Nc1cc(Cl)ccc1O | i |
| O=[N+]([O-])c1nn(-c2ccc(Cl)cc2)n(O)c1=NCC1CCCO1 (stereo not given) | i |
| CCC(=O)N(C)C[C@@H]1Oc2ncc(C#CCC(C)C)cc2C(=O)N([C@H](C)CO)C[C@H]1C | i |
| C[C@H]1CN([C@@H](C)CO)C(=O)c2cc(-c3ccc(F)cc3)cnc2O[C@H]1CN(C)C(=O)CN(C)C | i |
| COc1ccccc1-c1cnc2c(c1)C(=O)N([C@@H](C)CO)C[C@@H](C)[C@H](CN(C)CC1CCOCC1)O2 | i |
| CCOC(=O)CSc1nc2ccc(Br)cc2c(=O)n1-c1ccccc1OC | i |
| Cc1c(NC(=O)CCCC(=O)O)cccc1C(=O)O | i |
| CC(C)C#Cc1cnc2c(c1)C(=O)N([C@@H](C)CO)C[C@@H](C)[C@@H](CN(C)Cc1ccccc1)O2 | i |
| C[C@@H]1CN([C@@H](C)CO)C(=O)c2cc(-c3ccccc3F)cnc2O[C@H]1CN(C)C(=O)c1cnccn1 | i |
| O=C(CSc1nnc(C23CC4CC(CC(C4)C2)C3)o1)Nc1ccc(N2CCOCC2)c(Cl)c1 | i |
| CC(C)CC#Cc1cnc2c(c1)C(=O)N([C@@H](C)CO)C[C@@H](C)[C@H](CN(C)C(=O)CC1CC1)O2 | i |
| CC(=O)C(C#N)C(=O)Nc1cc(Br)ccc1Br (stereo not given) | i |
| C[C@@H]1CN([C@@H](C)CO)S(=O)(=O)c2ccc(C3=CCCC3)cc2O[C@@H]1CN(C)Cc1cccc(C(=O)O)c1 | + |
| O=C(O)c1cc(-c2ccccc2)nc2ccccc12 | i |
